Mtb hypoxia rep: reduces hypoxia-regulated biosensor signal in M. tuberculosis; M. tuberculosis hypoxia-regulated fluorescent reporter, fluorescence; fluorescence inhibition, % (concentration not given with the values); 0.1% of 300,000 active; AID 1159583;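 active = 35 to 45% if threefold the growth effect, above 45% if 1.5-fold the growth effect; inactive = the rest, general growth blockers included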;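 note: wells of about 50 µL received 100 nL stock; 0% = vehicle wells and 100% = reference inhibitor wells; whole bacteria with a GFP reporter of the hypoxia response; strong numbers were not always called active; many hits fall short of the cut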
ugtP null kill: compounds lethal to S. aureus RN4220 ugtP deletion mutant | growth inhibition, % (concentration not given with the values) | OD600 growth, 16 h; some inactives read as strong as hits | 0.54% of 330,000 active;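 active = z-score under -3 and OD600 up to 0.15 on both plates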;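 note: plate controls were untreated wells for no effect and antibiotic for full effect; wells of about 80 µL received 100 nL stock; the first replicate is given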
BJeLR viability: kills HRASV12-expressing BJeLR cells. BJeLR (HRASV12) viability, CellTiter-Glo ATP luminescence, 48 h; reference of the scale not given here. inhibition, % (test concentration not listed). 0.17% of 300,000 active. AID 1554;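 active = replicate mean above 50%; inconclusive = above 50% but judged a plate artefact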;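 note: 50 nL library stock added to about 25 µL; numbers are from one replicate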
PrP 5UTR inh: inhibition of PrP 5' UTR reporter expression; cell-based PrP 5' UTR mRNA reporter, plate reader; inhibition, % (concentration not given with the values); 0.35% of 340,000 active;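 active = every replicate at 50% or more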;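 note: 0 = median of the neutral control wells; tested in H4 reporter cells; numbers are from one replicate; inactives centre near -14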
Sa RN4220 lethal: kills Staphylococcus aureus RN4220. S. aureus RN4220 growth, OD600, 16 h. inhibition, % (concentration not given with the values). 0.33% of 330,000 active. AID 1259311;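 active = z-score of -3 or lower and OD600 up to 0.18 on both plates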;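 note: plate controls were untreated cells for no effect and reference antibiotic for full effect; stock transfer was 100 nL into about 80 µL; one replicate is shown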
Bead autofluor: compound fluorescence in toxin protease inhibitor counterscreen; fluorescence intensity (concentration not given with the values); compound autofluorescence counterscreen, microsphere flow cytometry; active compounds read high; 3.1% of 360,000 active;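 active = at least 3 SD above the mean of all compounds, about 16000 in these data; inconclusive = too few beads counted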;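 note: 100 nL of 1 mM stock went into each well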
Mtb hypoxia rep growth: also measured in Mtb hypoxia rep; calls as there; growth inhibition, %; measured here: M. tuberculosis growth (absorbance);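 0% = vehicle and 100% = reference antibiotic; read after six days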
* marks the source's active call; other numbers are inactive results; ? = inconclusive; nt = not tested or not shown.

SMILES | Mtb hypoxia rep | Mtb hypoxia rep growth | ugtP null kill | BJeLR viability | PrP 5UTR inh | Sa RN4220 lethal | Bead autofluor
CCCC(=O)Nc1ccc(C(=O)NN=Cc2ccc([N+](=O)[O-])o2)cc1 | 0.0 | 14.0 | 13.9 | nt | nt | 0.7 | nt
CC1(C)CC(=O)c2cc3c(N)c(C(=O)NCc4ccccc4)sc3nc2C1 | nt | nt | 3.6 | -7.0 | -24.0 | 3.2 | 2975
COc1ccc(NC(=O)CSc2nnc(-c3cccs3)n2-c2ccccc2)cc1 | 2.8 | 4.2 | -2.2 | 6.8 | -22.6 | 8.5 | 2785
COc1cc(NC(=O)Cn2cnc3sc(C)c(S(=O)(=O)N4CCN(C)CC4)c3c2=O)cc(OC)c1OC | 0.8 | 12.9 | 2.3 | 9.4 | nt | 2.1 | nt
CC(C)(C)OC(=O)N1CCN(C(=O)c2[nH]cnc2C(=O)N[C@@H](Cc2ccccc2)C(=O)OCc2ccccc2)CC1 | nt | nt | nt | -0.5 | -11.8 | nt | 4014
COc1ccc2c(c1)[nH]c1c(=O)n(N)cnc12 | nt | nt | nt | -0.5 | -50.6 | nt | 9935
CN(C)/C=C1\N=C(c2cccs2)OC1=O | nt | nt | nt | 5.2 | -27.8 | nt | 2633
COc1cc2c(cc1OC)CN(C(=O)c1sccc1C)CC2 | 18.2 | 10.4 | 0.4 | -3.3 | -57.1 | 6.6 | 5887
CCOc1ccc(C(=O)NC(=S)Nc2ccc(N3CCC(C)CC3)cc2)cc1[N+](=O)[O-] | nt | nt | 26.7 | 3.3 | -13.2 | -16.4 | 14746
CC(=O)Nc1ccc(C(=O)NNC(=O)c2cccs2)cc1 | 4.4 | 0.3 | 7.2 | -0.4 | -25.5 | 4.8 | 2518
CC(C)c1nc2ccc(NC(=O)C34CC5CC(CC(C5)C3)C4)cc2[nH]1 | 9.1 | 10.6 | -7.0 | 3.2 | -30.3 | 2.8 | 4599
O=C(CS(=O)(=O)c1c[nH]c2ccccc12)Nc1ccc(F)cc1 | nt | nt | nt | 7.6 | -5.9 | nt | 6212
COc1ccc(/C=C/C(=O)N(Cc2ccccc2)c2ccccn2)cc1OC | -15.2 | -7.4 | -2.8 | 10.2 | -41.3 | -0.3 | 2053
Cc1ccc(SCC(=O)NC(C)(C)C)cc1 | 13.8 | 15.8 | 9.5 | -7.1 | -38.5 | 4.9 | 7013
Cc1nn(Cc2ccccc2)c(C)c1N | -5.6 | 7.0 | -4.6 | -13.1 | -17.1 | 2.0 | 7268
O=C(N/N=C/c1cccc([N+](=O)[O-])c1)C1CC(=O)N(c2ccc(Br)cc2)C1 (stereo not drawn) | nt | nt | nt | 10.4 | -13.5 | nt | 9301
C(=N\N1CCN(C2c3ccccc3-c3ccccc32)CC1)/c1cccs1 | nt | nt | nt | -0.1 | -3.8 | nt | 2662
Nc1nnc(N2CCCCC2)s1 | 10.4 | 9.9 | 11.6 | -11.6 | -5.0 | 7.9 | 10740
CCC(CC)C(=O)N1CCN(Cc2ccc3c(c2)OCO3)CC1 | nt | nt | 1.6 | -3.7 | -4.9 | -1.5 | 4369
CCOc1ccccc1NC(=O)NC1(C(=O)N2CCOCC2)CCCCC1 | nt | nt | 3.1 | 15.3 | -19.2 | 2.4 | 2330
COc1ccccc1Cn1[nH]nnc1=S | 4.8 | 6.5 | 4.5 | -1.3 | -20.3 | 3.0 | 3865
COc1cc(C=CC(=O)O)ccc1S(=O)(=O)N1CCCc2ccccc21 | 5.6 | 17.6 | -3.9 | nt | nt | 5.2 | nt
CCCCc1nc(NCCNC(=O)c2ccccc2)c(C#N)c2c1CSC(C)(C)C2 | nt | nt | -10.8 | 9.6 | 14.0 | 2.3 | 4547
CC(NC(=O)c1cccs1)C(S)c1ccccc1 (stereo not drawn) | nt | nt | nt | 11.6 | -18.2 | nt | 3832
O=S(=O)(NCc1csc(-c2cccs2)n1)c1ccc(Cl)cc1 | 8.5 | 14.0 | -2.6 | -4.8 | 12.0 | 8.6 | 4558
COc1ccccc1NC(=O)COC(=O)c1ccccn1 | 15.3 | 2.1 | 7.8 | 5.2 | -17.5 | 2.5 | 3925
O=C(COc1cccc(F)c1)N[C@@H](Cc1ccccc1)c1nc2ccccc2[nH]1 | 3.6 | 4.1 | 16.5 | 0.2 | -18.3 | -4.0 | 2700
COc1ccc(OCCN2CCN(S(=O)(=O)c3ccccc3C(F)(F)F)CC2)cc1 | 11.0 | 6.2 | 8.2 | nt | 2.5 | 4.1 | 3512
O=C(NN=Cc1cccnc1)c1ccc(Cl)c(Cl)c1 | 14.9 | 4.0 | 4.1 | nt | nt | 1.9 | nt
COc1cc(NC(=O)CSCC(=O)Nc2cc(OC)cc(OC)c2)cc(OC)c1 | -1.5 | 2.5 | 9.4 | -10.3 | nt | 3.6 | nt

Record cards, as listed above. Order of values: Mtb hypoxia rep	Mtb hypoxia rep growth	ugtP null kill	BJeLR viability	PrP 5UTR inh	Sa RN4220 lethal	Bead autofluor
Shown for CC(NC(=O)c1cccs1)C(S)c1ccccc1 (stereo not drawn) = nt	nt	nt	11.6	-18.2	nt	3832
Shown for COc1ccc(OCCN2CCN(S(=O)(=O)c3ccccc3C(F)(F)F)CC2)cc1 = 11.0	6.2	8.2	nt	2.5	4.1	3512
Shown for C(=N\N1CCN(C2c3ccccc3-c3ccccc32)CC1)/c1cccs1 = nt	nt	nt	-0.1	-3.8	nt	2662

Following part.
SMILES | Mtb hypoxia rep | Mtb hypoxia rep growth | ugtP null kill | BJeLR viability | PrP 5UTR inh | Sa RN4220 lethal | Bead autofluor
NS(=O)(=O)c1ccc(CNC(=O)Cc2ccc(S(=O)(=O)N3CCOCC3)s2)cc1 | 4.1 | 1.0 | 5.5 | -3.5 | -37.5 | 2.2 | ?
CCOC(=O)/C=C/S(=O)(=O)c1ccc(NC(C)=O)cc1 | 25.2 | 15.8 | 1.3 | -7.0 | -20.9 | 1.8 | 15772
CC1CCN(C(=O)c2ccc(Br)c(S(=O)(=O)N3CCOCC3)c2)CC1 | -14.7 | 0.2 | -2.9 | 11.7 | -4.0 | -3.1 | 5563
COC(=O)C=CC(=NNc1ccccc1)c1ccccc1 | 21.8 | 8.9 | 1.6 | nt | -25.8 | 3.3 | 3854
CCOC(=O)C1(Cc2ccccc2C(F)(F)F)CCN(C(C)COC)CC1 (stereo not drawn) | 7.4 | 2.0 | 8.3 | 7.6 | -10.4 | 2.0 | 3247
CC(=O)NCc1ccc(S(=O)(=O)N2CCN(S(=O)(=O)c3ccc4ccccc4c3)CC2)cc1 | 3.7 | 3.9 | 3.6 | nt | 10.9 | 4.7 | 6825
Cc1ccc(Cl)cc1N1CCN(C(=O)CCCn2c(=O)c3cccn3c3cccnc32)CC1 | -8.7 | -0.4 | -22.8 | 7.2 | -15.2 | 2.1 | 5859
C#CCOCCOCCOCCNc1nc(N2CCN(C(=O)Cn3cc(CCCN=C(N)N)nn3)CC2)nc(N2CCN(C(=O)C(C)n3cc(CCCN=C(N)N)nn3)CC2)n1 (stereo not drawn) | 1.1 | -5.7 | -0.4 | nt | nt | 8.8 | nt
Cc1ccc(NC(=O)NN(C)c2c(Cl)c(Cl)nn2C)cc1 | -0.6 | -2.0 | -5.2 | 1.4 | -27.3 | 4.5 | 2159
CCCOC(=O)CCCCCCCCC(O)CN1CCCCC1 (stereo not drawn) | 7.9 | 9.9 | 2.7 | 7.3 | -28.5 | 6.3 | 3926
CC(C)(C)c1ccc(OC(=O)CN2C(=O)C3C4CCC(C4)C3C2=O)cc1 (stereo not drawn) | 4.4 | 2.7 | 9.9 | -15.8 | -18.5 | 2.9 | 2424
COCCNC(=O)c1c(C)cc(C)cc1C | 8.9 | 2.5 | 4.0 | -7.1 | -18.5 | 4.3 | 2524
Cc1[nH]c2ccccc2c1CCC(N)=O | -1.0 | 11.5 | -3.7 | -13.2 | -3.4 | 2.3 | 10754
CCCCOc1ccc(CSc2nncn2N)cc1 | nt | nt | 3.6 | -0.3 | -57.3 | 1.5 | 2614
O=c1cc2oc3cc(O)c(O)cc3c(-c3ccccc3O)c-2cc1O | 15.4 | -52.2 | -20.2 | nt | -1.8 | 7.7 | 3432
Cc1ccc(N(C)C(=O)c2cnn(-c3ccccc3)c2C)c(C)c1 | 5.5 | 12.9 | 4.7 | -2.9 | -24.0 | 5.6 | 4275
COc1ccccc1N1CCN(Cc2ccco2)CC1 | -2.6 | 4.5 | -10.4 | 3.8 | -24.6 | 4.9 | 7355
CCNC(=O)N1CCNC(=O)C1CC(=O)Nc1ccc(C(=O)OCC)cc1 (stereo not drawn) | nt | nt | 0.2 | 7.6 | -28.7 | 0.7 | 4758
S=c1[nH]nc(-c2ccncc2)n1CC1CCCO1 (stereo not drawn) | 2.3 | 9.1 | -2.9 | 4.5 | -8.2 | 3.1 | 3144
CCOc1nnc(C)c2c(C)n(-c3ccc(Cl)cc3)nc12 | -0.1 | 4.4 | 9.8 | -14.8 | -13.6 | 4.6 | 3850
Cc1ccc(N2CC(C(=O)N/N=C/c3sccc3C)CC2=O)cc1 (stereo not drawn) | nt | nt | nt | -10.8 | -3.4 | nt | 9049
Cc1ccnc(NC(=O)c2ccc(Br)s2)c1 | 13.8 | 6.1 | 1.0 | -0.6 | -62.2 | 0.5 | 3689
CCNC(=S)NN=Cc1sccc1C | 2.5 | 9.4 | -0.6 | nt | nt | 0.1 | nt
O=C1CC(c2ccc(F)cc2)CC(O)=C1C=NCCN1CCN(C(=O)Nc2ccccc2)CC1 (stereo not drawn) | -0.5 | 4.5 | 0.8 | -3.0 | -20.7 | 4.2 | 3273
Cc1nn(Cc2c(Cl)cccc2Cl)c(C)c1C(=O)NCc1ccc(C)n1C | -6.8 | -4.7 | 10.7 | -8.8 | -2.6 | 20.8 | ?
Nn1c(SCC(=O)NCCc2ccc(F)cc2)nnc1C1CCCCC1 | 6.1 | -0.3 | 4.9 | nt | -4.1 | 3.6 | 3563
COc1cccc(-c2nnc3sc(-c4cccs4)nn23)c1 | 4.3 | 9.4 | -17.1 | nt | -27.7 | 13.4 | 8351
CC(C)C(=O)n1nc(-c2cccnc2)nc1NCc1ccc(F)cc1 | 11.3 | 2.5 | 5.2 | 1.9 | -12.4 | 7.7 | 3965
COc1cc(C(C)=O)ccc1Oc1cc(NN2CCCCC2)c([N+](=O)[O-])cc1[N+](=O)[O-] | 21.3 | 6.8 | 11.2 | 6.7 | -0.9 | 3.5 | 3707
O=C(Nc1sc2c(c1C(=O)O)CCC2)c1ccco1 | 8.4 | 1.4 | -11.3 | 1.9 | -35.5 | 4.4 | 9248
Cc1ccc2c(c1)nc(NCCO)n2C | 4.0 | 8.0 | 3.4 | 4.6 | -19.7 | 0.0 | 4760
Cc1cc(=O)oc(C)c1C(=O)Nc1ccc(F)cc1 | -5.8 | 5.9 | -1.4 | 4.9 | -14.8 | -1.0 | 3361
CN1C(=O)CS(=O)c2ccc(C(=O)NCCC3=CCCCC3)cc21 (stereo not drawn) | nt | nt | 9.2 | 2.6 | -7.3 | 1.2 | 5838
CCn1cnc2c1c(=O)n(CC(=O)Nc1cc(C)on1)c(=O)n2Cc1ccccc1 | -7.5 | 3.2 | -2.6 | -6.3 | -11.0 | 6.9 | 8456
COc1cccc(NC(=O)CN(C)C(=O)c2ccc(COc3ccccc3)o2)c1 | -9.8 | -3.2 | -0.5 | nt | nt | 1.0 | ?
CN(CC(=O)Nc1ccccc1C(F)(F)F)C(=O)c1cccc(-n2cccc2)c1 | -3.7 | 14.2 | -2.0 | -2.7 | -5.4 | 2.1 | 5881
Cc1cc(C)c2c3c(cn2n1)c(=O)n(C)c(=O)n3C | nt | nt | -1.5 | -10.3 | -6.2 | 2.4 | 2973
COc1ccc(N2C(=O)C3CC(C)=C(C)CC3C2=O)c(OC)c1 (stereo not drawn) | 1.3 | 3.7 | -1.6 | -5.8 | -2.8 | 2.6 | 8788
CC(=O)Nc1ccc(S(=O)(=O)Nc2ccc(-c3ccc4nnc(C)n4n3)cc2)cc1 | 12.5 | -2.4 | -1.5 | -6.0 | -24.9 | 2.8 | 2099
Cc1ccc2c(c1)C(=O)CC1(CCCCCC1)O2 | 2.9 | 1.7 | 10.6 | -9.2 | -70.0 | 9.7 | 2911
Cc1cc(Br)ccc1NC(=O)CCSc1ccccc1 | 2.6 | 2.2 | -4.8 | -3.2 | -8.4 | -5.8 | 11403
Cc1cc(=O)oc(C)c1C(=O)OCC(=O)c1ccc(Cl)cc1 | nt | nt | 7.0 | 4.5 | -10.5 | 2.5 | 2416

Screening results: PubChem, several laboratories
